TRPML1 inh: human mucolipin-1 channel inhibition. 390,000 tested, 0.02% active. TRPML1-inducible cells, Ca2+ dye fluorescence, FDSS; active compounds read low; inhibition of EC80 agonist-evoked calcium signal. activity change, negative = inhibition, % (no concentration beside the values); in the data active means activity change below about -50%; inconclusive means about -30% to -50%; inactive means above about -30%;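 also: stimulus is agonist 54-4 at its EC80 concentration; % is scaled to controls: 0 for no effect and ±100 for the full control effect; compound concentration not given in the record; the text of the record puts the active cut at -80%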
Target sequence (Q9GZU1 whole entry, looked up): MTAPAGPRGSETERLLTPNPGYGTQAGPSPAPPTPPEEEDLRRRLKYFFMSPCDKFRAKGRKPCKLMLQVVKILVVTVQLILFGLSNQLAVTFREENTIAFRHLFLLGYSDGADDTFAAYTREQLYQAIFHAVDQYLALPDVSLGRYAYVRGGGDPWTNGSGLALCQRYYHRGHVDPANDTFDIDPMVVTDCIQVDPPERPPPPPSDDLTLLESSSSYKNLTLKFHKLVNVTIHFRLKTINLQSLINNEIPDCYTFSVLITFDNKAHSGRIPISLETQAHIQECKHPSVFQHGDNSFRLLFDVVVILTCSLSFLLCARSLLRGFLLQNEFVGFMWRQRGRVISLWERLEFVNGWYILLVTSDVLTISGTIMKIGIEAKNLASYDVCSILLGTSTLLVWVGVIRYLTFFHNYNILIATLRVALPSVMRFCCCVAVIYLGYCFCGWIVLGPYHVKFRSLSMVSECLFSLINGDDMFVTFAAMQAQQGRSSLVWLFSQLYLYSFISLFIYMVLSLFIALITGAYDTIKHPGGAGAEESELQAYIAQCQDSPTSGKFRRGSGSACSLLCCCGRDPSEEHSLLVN
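Calcium fluorescence in TRPML1-DL cells induced overnight with Tet: a 110 s read after compound pin addition, then a 110 s antagonist read after challenge with 54-4 at 4 uM final (EC80).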
TRPV1 potentiator: potentiators of human vanilloid receptor 1 (TRPV1); Q8NER1; 320,000 tested, 0.02% active; TRPV1-expressing cells, Fluo-8 calcium influx, capsaicin EC20 potentiation; host cell line not named in the record; control for the full effect not named in the record; potentiation, % at 8.33 µM; active means potentiation above 80%; inconclusive means 30% to 80%; inactive means below 30%; also: 0% is about no effect
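Cells expressing TRPV1 were dye-loaded with Fluo-8 and read kinetically: 10 s baseline, 3 min after compound (agonist portion), then 2 min after EC20 capsaicin (allosteric enhancer portion). Calcium-bound dye fluorescence at 480/520 nm.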
Sfp inh: Sfp phosphopantetheinyl transferase inhibition; 310,000 tested, 3.5% active; AID 1490; Biochemical Sfp PPTase activity, qHTS; Potency, µM, without a hit: max response, negative = inhibition, actives largely listed as inhibitors; active = well fitted inhibition curve with a large enough effect; inconclusive = small, poorly fitted or top-dose-only effect, or another doubt; inactive = no such curve, though single readings can be large or run the other way;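 also: the enzyme is Sfp with the accession as filed and its product quenches rhodamine fluorescence; potency is read from the fitted curve at half-maximal effect; 0% = enzyme reaction without inhibitor and -100% = no enzyme wells; top concentration of the series not given in the record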
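After 15 min at room temperature with compound, 15 nM Sfp received 5 uM rhodamine-CoA plus 12.5 uM BHQ-2-ybbR (50 mM Hepes pH 7.6, 10 mM MgCl2). Rate came from the fluorescence difference over 30 min, ex 525/em 598 nm.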
TRPML1 agonist: human mucolipin-1 channel agonism; Q9GZU1; TRPML1-expressing cells, Ca2+ dye fluorescence, FDSS; host cell line not named in the record; reference of the full effect not given here; activation, % (test concentration not listed); 410,000 tested, 0.12% active; in the data active = activation above about 50%; inconclusive = about 30% to 50%; inactive = below about 30%; also: 0% is about no effect; the text of the record puts the active cut at 80%
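Tet-induced TRPML1-DL cells, 1,500 per well, cultured overnight, were loaded with a no-wash Ca2+ dye for 45–90 min. Calcium fluorescence was recorded on the FDSS for 110 s after compound addition, before the EC80 agonist (4 uM 54-4) was added.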
ClpP mod: qHTS Assay for Activators of ClpP | ATP-dependent Clp protease proteolytic subunit (Bacillus subtilis (strain 168)), P80244 | purified B. subtilis ClpP, FRET peptide cleavage, 20 min | Potency, µM (doses to about 57.5 µM), for inactives: at the highest dose activity change, negative = active | 340,000 tested, 1.9% active; active = well fitted falling curve with a large enough effect; inconclusive = small, poorly fitted or top-dose-only effect; inactive = no such curve, though single readings can be large or run the other way; also: potency is read from the fitted curve at half-maximal effect; the source files actives as falling curves though it sought activators and does not explain the sign; nearly all actives have a fitted effect of over 65% in size; many hits overshoot -100%
Target sequence (P80244 whole entry, looked up): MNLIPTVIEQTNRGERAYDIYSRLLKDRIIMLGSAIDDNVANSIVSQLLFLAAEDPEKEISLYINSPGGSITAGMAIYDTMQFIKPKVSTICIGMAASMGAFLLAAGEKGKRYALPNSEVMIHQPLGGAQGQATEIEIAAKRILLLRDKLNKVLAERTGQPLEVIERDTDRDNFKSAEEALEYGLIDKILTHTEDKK
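FRET quenching reversal measured ClpP activation: 10 microg/mL B. subtilis ClpP at pH 8 with the FRET-FV decapeptide, read at 430 nm after 320 nm excitation. The 20-min minus 0-min signal was scaled between DMSO/no-enzyme wells and ADEP (5.8 microM final).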
PINK1 expr mod: modulators of PINK1 expression. PINK1 immunofluorescence, high-content cytometry, 24 h. Potency, µM (highest dose often 76.6 µM), inactives show at the top dose activation (PINK1 increase), usual class: activators. 410,000 tested, 0.2% active. AID 624263; active = well fitted activation curve with a large enough effect; inconclusive = small, poorly fitted or top-dose-only effect; inactive = flat fitted curve, though single readings scatter; cell line not stated here;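 also: potency is read from the fitted curve at half-maximal effect; % of control where 0% means no effect; nearly all actives have a fitted effect of over 65% in size; a mitochondrial uncoupler was the plate control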
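Stable cell line treated 24 h with compounds at 5 concentrations (CCCP controls), then fixed and immunostained for PINK1 plus nuclear and cell stains; PINK1 immunofluorescence quantified by laser-scanning microplate cytometry.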
Menin MLL FP FL: inhibitors of human menin-MLL interaction, wild-type MLL peptide | FP activity change, % at 61.4 µM | 290,000 tested, under 10 active | Fluorescence polarization, fluorescein-MLL peptide displacement from menin; inconclusive = falling polarisation curve, or a change in total fluorescence; inactive = total fluorescence flat and polarisation flat or rising; no compound was filed as active; the % refers to the polarisation; negative = inhibition;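 also: % of control where 0% means no effect; inhibitors lower the polarisation; unlabelled MLL peptide was the positive control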
An asterisk follows results filed as active; ? = inconclusive; . = not tested or not shown; & = joins results of further samples; ! = not confirmed by another sample; [ ] = dose if it differs, or a comment.

Sample of the layout, three compounds:
SMILES	TRPML1 inh	TRPV1 potentiator	Sfp inh	TRPML1 agonist	ClpP mod	PINK1 expr mod	Menin MLL FP FL
CCCCCC(=O)N1CCN(CCN=CC2=C(O)CC(c3cccs3)CC2=O)CC1 (configuration not stated)	-2&-1	?	21%	0.9&-0.2	32µM*!	-1.0%	-2.1
CCOC(=O)[C@@H](C)NS(=O)(=O)N(Cc1ccccc1)[C@H](C(=O)OC)C(C)C	-4	-2	.	-0.6&-1.0	1.9%&1.0%	-1.7%	.
Cc1ccc(N2CCN(c3ccc([N+](=O)[O-])cn3)CC2)c(C)c1	81	0	8%	1.9	-3.0%	0.5%	?

The whole of this part (from the top)
SMILES	TRPML1 inh	TRPV1 potentiator	Sfp inh	TRPML1 agonist	ClpP mod	PINK1 expr mod	Menin MLL FP FL
CCCCCC(=O)N1CCN(CCN=CC2=C(O)CC(c3cccs3)CC2=O)CC1 (configuration not stated)	-2&-1	?	21%	0.9&-0.2	32µM*!	-1.0%	-2.1
CCOC(=O)[C@@H](C)NS(=O)(=O)N(Cc1ccccc1)[C@H](C(=O)OC)C(C)C	-4	-2	.	-0.6&-1.0	1.9%&1.0%	-1.7%	.
Cc1ccc(N2CCN(c3ccc([N+](=O)[O-])cn3)CC2)c(C)c1	81	0	8%	1.9	-3.0%	0.5%	?
CNCc1cc(Br)c(OCC(=O)Nc2ccccc2OC)c(OC)c1	11	0	16%	-0.1	.	2.6%	-1.3
CCC(=O)Nc1ccc(C(=O)Nc2c[nH]c(=O)[nH]c2=O)cc1	-11	3	12%	-0.4	.	-0.4%	-1.8
CC1CN(C(=O)CCC(=O)NCc2cccs2)c2ccccc2O1 (configuration not stated)	4	.	.	0.5	-1.2%	-0.3%	.
O=C(CCNC(=O)c1ccco1)Nc1ccccc1N1CCOCC1	-3	-4	14%	0.3	.	-1.7%	-2.4
COc1ccc(S(=O)(=O)N2CCC(C(=O)N3CCC(C(N)=O)CC3)CC2)cc1Cl	-23	-1	2%	0.3	.	0.9%	-1.3
Cc1ccc(C2CC(=O)NC(SCc3ccccc3)=C2C#N)o1 (configuration not stated)	3	7	?	-0.6	-1.4%	4.4%[38.3 µM]	9.1
CN1CCN(c2nc3c(c(=O)[nH]c(=O)n3C)n2Cc2cccc3ccccc23)CC1	-8	10	7%	0.4	0.5%	-0.8%	1.1
COc1ccc(CC(=O)OCC(=O)Nc2cccc(C(C)=O)c2)cc1OC	-3	-7	.	2.0	.	-1.7%	.
CC(=O)Nc1ccc(N2Cc3ccccc3C2)cc1	-20	0	-5%	0.0	-3.0%	0.1%	17
COc1ccc(C(c2c(C)n(C)n(-c3ccccc3)c2=O)c2c(C)n(C)n(-c3ccccc3)c2=O)c(OC)c1OC	-3	?	13%	-0.3	0.2%	-0.2%	-2.3
CCC1(CC)NC(=O)N(CC(=O)Nc2ccc(-n3cnnn3)cc2)C1=O	-1	.	.	-0.5	-8.9%	0.4%	.
COc1cccc(CNc2nn[nH]n2)c1OC	-9	8	-9%	0.5	-1.8%	-0.7%	5.4
CC(=O)c1ccc(NC2OC(CO)C(O)C(O)C2O)cc1 (configuration not stated)	14	0	11%	0.3	-9.9%	0.9%	-2.0
CCCC(=O)Nc1cccc(OCc2cc(=O)n3cccc(C)c3n2)c1	36	.	.	-0.1	-8.1%	-3.7%	.
O=C(c1ccccc1O)N1N=C(C(F)(F)F)CC1(O)c1ccc([N+](=O)[O-])cc1 (configuration not stated)	-5	14	11%	0.7	1.0%	0.3%	2.4
CCCCNC(=O)CCCCCNS(=O)(=O)c1ccc(OC)cc1	-19	3	10%	0.1	-2.7%	2.0%[38.3 µM]	-2.1
C=Cc1ccc(Cn2c(C(=O)O)c(CNC3CCCC3)c3ccc(C)cc32)cc1	-17	.	.	2.9	-21%	1.7%	.
CCCc1nnc(NC(=O)CCC(=O)NCc2ccc(Cl)cc2Cl)s1	13	0	23%	2.6	-0.4%	-0.8%	.
Cc1cc(C)c(OCCOCCN(C)C)c(Br)c1	12	-9	-43%	-0.4	2.0%	1.6%	-0.4
Cc1nc(N2CCCC2)c2c(C(=O)N3CCN(c4cccc(Cl)c4)CC3)c(C)oc2n1	0	.	.	1.9	-0.3%	4.1%	.
COc1cc(NC(=O)CCc2ccccc2)nc(OC)n1	5	-8	2%	0.1	-0.9%	4.5%[38.3 µM]	1.8
C/C(=C\c1ccc2c(c1)OCO2)C(=O)c1c(C)cc(C)[nH]c1=O	8	-6	8%	0.3	-1.6%	0.9%	2.7
CC(=O)OCC1OC(OC(C)=O)C(NC(=O)c2cccnc2)C(OC(C)=O)C1OC(C)=O (configuration not stated)	-3	-4	1%	0.6	-1.1%	0.4%	1.1
O=C1OC(c2ccc(Br)cc2)=N/C1=C\N1CCCCC1	-15	-12	-25%	4.7	0.2%	-0.8%	3.0
Cc1cc(C)cc(NC(=O)C(NS(=O)(=O)c2cccc3nsnc23)c2ccccc2)c1 (configuration not stated)	-8	.	.	1.8	-3.5%	2.3%	.
COC(=O)C1=C(CSc2nc3ccccc3o2)NC(=O)NC1c1cc(C)ccc1C (configuration not stated)	2	6	-9%	-0.4	-1.6%	-0.4%	2.8
CC(C)CCNC(=O)c1c2c(nc3ccccc13)C(=O)N(C1CCCCC1)C2	9	.	.	0.0	-25%	1.7%	.
O=C(N[C@@H](CCC/[N+]([O-])=C/c1ccccc1)C(=O)O)OCc1ccccc1	12	.	.	-0.4	1.3%	1.1%	.
COc1cc(C(O)c2nc3ccccc3n2C(C)C)cc(OC)c1OC (configuration not stated)	-6	?	1%	-0.3	-2.2%	-0.4%	-3.3
COc1ccccc1C(=O)NNC1=C(C(=O)C(F)(F)F)CCC1	7	4	-7%	-0.3	8.2%	.	4.4
CN(C)CCCN1C(=O)CSC1c1ccc([N+](=O)[O-])cc1 (configuration not stated)	-6	-6	13%	0.9	.	1.7%	-1.5
Cc1cccnc1NCc1ccc(O)c2ncccc12	-8	9	16%	0.0	4.6%	14µM*	-1.7
Oc1c(C(Nc2cccc(C(F)(F)F)c2)c2ccncc2)ccc2cccnc12 (configuration not stated)	4	-16	-5%	-1.3	-19%	5.3%	-2.2
Cc1nc2nc(SCC(=O)NCCCN3CCCCC3)nn2c(C)c1Cc1ccccc1	-1	7	12%	-0.2	.	2.4%	3.1
N#Cc1nc(-c2ccccc2F)oc1NC1CCCCC1	12	13	?	-0.2	4.6%	3.7%	1.2
CCOc1ccccc1NC(=O)NNS(=O)(=O)c1cc(OC)ccc1OC	-12	10	-3%	0.0	-1.2%	-0.7%	0.6
CN(CC(=O)Nc1ccccc1C(F)(F)F)C(=O)C1CCN(C(=O)c2ccc(Cl)cc2)CC1	19	3	.	-0.8	0.9%	-1.4%	.
Cc1cccc(C(=O)NCc2nnc(SCC(=O)N3CCN(c4ccccc4)CC3)n2C)c1	13	.	.	0.1	-6.5%	.	.
O=C(NNC(=O)c1ccccc1[N+](=O)[O-])c1ccccn1	?	13	11%	-0.2	0.3%	-1.3%	1.1
O=C(O)Cc1ccc(NC(=O)c2ccc(NC(=O)c3ccco3)cc2)cc1	19	12	15%	-0.3	-0.8%	?	3.3
Nc1c(C(=O)CSc2n[nH]c(-c3ccccc3)n2)c(=O)[nH]c(=O)n1C1CC1	2	4	.	-0.5	77%	-0.4%	.
CCOC(=O)CSc1nnc2n1C(C)(C)Cc1ccccc1-2	0	6	3%	-0.1	-1.4%	-1.7%	0.9
CCCCN1C(=O)c2ccccc2C1C(=O)NC1CCCC1 (configuration not stated)	13	10	18%	0.0	0.4%	2.3%[38.3 µM]	-1.5
O=C(Nc1nnc(C2CC2)s1)C1COc2ccccc2O1 (configuration not stated)	3	14	14%	0.5	.	-0.1%	-3.5
Cc1ccc(C)c(NC(=O)CSc2nc3c(c(=O)n2C)SC(C)C3)c1 (configuration not stated)	31	7	12%	-1.1	1.4%	1.5%	-1.9
CC(=O)Nc1cccc(NC(=O)CS(=O)(=O)c2cn(CC(=O)N3CCOCC3)c3ccccc23)c1	2	-2	6%	1.0	.	2.9%	4.7
COC(=O)c1cccc(NC(=O)Cc2ccc(OC)cc2)c1C	16	-7	17%	-0.8	1.0%	-5.1%	2.2
COCCc1ccc(OC2(C)CCN(Cc3cccn3-c3nccs3)C2)cc1 (configuration not stated)	.	.	.	0.6	-5.4%	-0.3%	.
CCCCc1c(O)nc(SCC(=O)N2CCCCC2)n(-c2ccccc2C)c1=O	0	3	-4%	-0.6	0.3%	-0.7%	-1.6
COc1ccccc1-c1cnc(C(O)c2ccc(C)cc2C)[nH]1 (configuration not stated)	.	.	.	-0.9	-11%	-1.1%	.
CCn1ncc(S(=O)(=O)Nc2cccnc2)c1C	6	-5	6%	0.6	-2.5%	1.7%	.
Nc1nc(COC(=O)CCC(=O)c2ccc(Cl)cc2)nc(Nc2ccccc2)n1	7	8	.	2.1	-3.7%	4.1%	.
Cn1c(SCC(=O)NC(=O)CN2CCCC2=O)nnc1-c1ccc(F)cc1	-1	-1	5%	-0.6	.	-1.0%	0.4
COc1ccc(CCNC(=O)c2ccccc2N(C)S(=O)(=O)c2ccccc2)cc1	-3	2	-8%	3.3	-11%	-0.3%	0.4
CCOC(=O)[C@H]1[C@H]2COc3ccc(Br)cc3[C@@H]2N2C(=O)CN(Cc3ccccc3)C(=O)[C@@]12C	-2	-7	.	-0.1	1.2%	1.3%	.
Cc1ccc(OCC(=O)Nc2ccc(NC(=O)c3ccccc3)cc2)cc1C	60	-9	4%	0.0	.	4.1%	-6.5
COC(=O)c1ccc2nc(-c3ccc(F)cc3)c(Cc3ccc(C)cc3)n2c1	.	.	.	0.0	-17%	4.9%	.
Additional entries
SMILES	TRPML1 inh	TRPV1 potentiator	Sfp inh	TRPML1 agonist	ClpP mod	PINK1 expr mod	Menin MLL FP FL
COc1ccc(C(=O)/C=C2\C(=O)Nc3ccc(Br)cc32)cc1	-3	.	.	1.2	1.0%	-3.4%	.
COC(=O)c1ccc(C2OCC(C)(C)CO2)cc1	-1	1	-3%	-0.5	.	2.3%	-5.2
Cc1ccc2c(c1)COc1c3ccc(C(=O)NCC4CC4)cc3nn1-2	-4	-6	6%	-0.3	4.0%	2.7%	-2.3
CCNc1ccccc(C(=O)/C=C/c2ccc3c(c2)OCO3)c1=O	30	15	45µM*	0.3	-9.2%	-2.4%	?
COc1ccc(CN2CCCC(CO)(Cc3cccc(Cl)c3)C2)cc1OC (configuration not stated)	-16	-12	2%	-0.2	.	3.1%	-0.1

Screening data (PubChem BioAssay)

The order is random. Share with any hit: about 4.4%.
